WNV protease inh – inhibitors of WNV NS2B-NS3 protease, primary screen, biochemical, fluorogenic substrate. Genome polyprotein (West Nile virus), P06935. z-score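 (tested at a level between 10 and 100 µM)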. fluorogenic substrate Ex360/Em465; hits give low values. 65,000 compounds, 0.18% hits;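 active = z-score at -3 or under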;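 also: score is relative to mean and spread of the compound wells of a plate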
Target sequence (P06935 1371-1501 limits assumed): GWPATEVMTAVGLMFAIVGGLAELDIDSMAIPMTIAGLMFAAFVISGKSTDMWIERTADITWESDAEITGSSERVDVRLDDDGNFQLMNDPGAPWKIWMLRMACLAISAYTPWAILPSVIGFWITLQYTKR
Target sequence (P06935 1502-1679 limits assumed): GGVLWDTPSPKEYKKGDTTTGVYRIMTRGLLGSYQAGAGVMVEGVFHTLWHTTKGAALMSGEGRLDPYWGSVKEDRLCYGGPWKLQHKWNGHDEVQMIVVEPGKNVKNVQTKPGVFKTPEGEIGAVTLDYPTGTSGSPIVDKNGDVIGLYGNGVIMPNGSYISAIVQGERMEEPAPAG
MT1-MMP reporter – inhibitors of MT1-MMP promoter transcription, cell-based, luciferase reporter, luminescence (AID 618); MT1-MMP promoter luciferase reporter cells, luminescence; calls from a first round at 10 µM; hits with a dose series show EC50 in µM; 87,000 compounds, 0.62% hits;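 active = over half of the reporter light lost at 10 µM or EC50 under 50 µM; inactive = the rest and hits that failed the dose series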;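 also: actives suppress MT1-MMP promoter-driven transcription so potencies describe inhibitors; HT1080 fibrosarcoma cells; overnight exposure; toxic or luciferase-blocking compounds were not removed from the actives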
Hsc70 – Hsc70 inhibitors, probe displacement, primary screen, biochemical, fluorescence polarization (AID 568); Heat shock cognate 71 kDa protein (Homo sapiens); Hsc70 fluorescence polarization, probe displacement; higher % means a stronger effect; strong numbers were not always called active; displacement, % at 20 µM; hits with a dose series show IC50 in µM; 83,000 tested, under 10 active;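 active = displacement above 50% without optical interference and an IC50 on retest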;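 also: ATPase domain with a fluorescein-tagged ATP probe; 0% = vehicle and 100% = excess ADP; read after one hour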
* hit, by the source's call; & = joins results of further samples.

Screening CCc1cccc2c3c([nH]c12)C(CC)(CC(=O)O)OCC3 (centres undefined) returned WNV protease inh -0.05, MT1-MMP reporter inactive and Hsc70 7.8%.
For CC(=O)O[C@H]1CSC[C@H]1NC(=O)c1ccccc1 the results were WNV protease inh -0.33, MT1-MMP reporter inactive and Hsc70 -0.9%.
Screening O=c1c2cc(N3CCOCC3)ccc2[nH]c(=S)n1CC1CCCO1 (centres undefined) returned WNV protease inh 2.1, MT1-MMP reporter inactive and Hsc70 -5.0%.
Screening Cc1c(C(=O)N2CCCCC2)nnn1-c1nonc1N returned MT1-MMP reporter inactive and Hsc70 1.6%.
Screening CC(=O)Nc1nc2ccccc2n1Cc1ccccc1C returned WNV protease inh -0.54, MT1-MMP reporter inactive and Hsc70 3.1%.
O=S(=O)(Nc1nc2ccccc2nc1N1CCN(c2ccccc2F)CC1)c1ccc(Cl)cc1 was read as MT1-MMP reporter inactive and Hsc70 -0.9%.
`CC(=O)c1cccc(NC(=O)N2CCCC2C(=O)Nc2cccc(C)c2)c1` (centres undefined) gave WNV protease inh 1, MT1-MMP reporter inactive and Hsc70 5.3%.
`CC1CCCC(C)N1C(=O)COC(=O)c1ccc(O)cc1` (centres undefined) gave MT1-MMP reporter inactive and Hsc70 1.6%.
For CCOc1cccc(-c2nc3cc(C)ccc3o2)c1 the results were WNV protease inh 0.39, MT1-MMP reporter inactive and Hsc70 -5.3%.
For COc1ccc(NC(=O)CSc2nc(C)cc(C(F)(F)F)n2)cc1 the results were WNV protease inh -0.12, MT1-MMP reporter inactive and Hsc70 4.0%.
For COc1ccc(-c2nc(C#N)c(NCc3cccnc3)o2)cc1OC the results were MT1-MMP reporter inactive and Hsc70 0.7%.
For Cc1ccc2c(c1)c1c3n2CCCN(Cc2ccccc2)C3CCC1 (centres undefined) the results were MT1-MMP reporter inactive and Hsc70 11%.
`Cc1c(NC(=O)C(C)Sc2nnc(-c3ccccc3)o2)c(=O)n(-c2ccccc2)n1C` (centres undefined) gave WNV protease inh -1.4, MT1-MMP reporter inactive and Hsc70 0.2%.
Cc1cc(SCC(=O)OCC(=O)N2CCN(C(=O)c3ccco3)CC2)c(C)cc1Br was read as MT1-MMP reporter inactive and Hsc70 3.6%.
`CC(=O)n1c2ccccc2c2c(C#N)c(N3CCCCC3)sc21` gave WNV protease inh 0.95, MT1-MMP reporter inactive and Hsc70 -0.4%.
For Cc1noc(C)c1C(=O)N1CCCc2ccccc21 the results were MT1-MMP reporter inactive and Hsc70 5.3%.
Screening CC(C)c1nnc(NC(=O)CN(C)S(=O)(=O)c2ccc3c(c2)OCCO3)s1 returned WNV protease inh -1.3, MT1-MMP reporter inactive and Hsc70 4.7%.
Screening CCCCc1c(O)nc(SCC(=O)NC(C)(C)C)n(-c2ccccc2C)c1=O returned MT1-MMP reporter inactive and Hsc70 -2.2%.
For CCOC1(OCC)N=C(N)C2(C#N)C(c3cccc(OC)c3OC)C12C#N (centres undefined) the results were WNV protease inh -0.36, MT1-MMP reporter inactive and Hsc70 -2.4%.
For Cc1cccc(-n2ncc3c(NC(C)C)ncnc32)c1 the results were WNV protease inh 1.2, MT1-MMP reporter inactive and Hsc70 -2.9%.
For CCN(CC)S(=O)(=O)c1cccc(C(=O)NCC(=O)OCC(=O)NCc2ccccc2)c1 the results were WNV protease inh 0.34, MT1-MMP reporter inactive and Hsc70 2.9%.
`NC(=O)c1c(N)sc2c1CCCCC2` gave WNV protease inh -0.54, MT1-MMP reporter inactive and Hsc70 -2.9%.
Screening CCOc1ccc(NC(=O)CCNc2c(N3CCCC3)c(=O)c2=O)cc1 returned WNV protease inh 0.33, MT1-MMP reporter inactive and Hsc70 -3.7%.
`COc1ccccc1NC(=O)C1=C(C)Nc2ncnn2C1c1ccc(C)o1` (centres undefined) gave WNV protease inh 0.21, MT1-MMP reporter inactive and Hsc70 -3.1%.
CCOc1ccc2[nH]c(=O)c(CN(Cc3ccccc3)C(=O)N3CCCC3)cc2c1 was read as WNV protease inh -0.01, MT1-MMP reporter inactive and Hsc70 2.2%.
`O=C(O)c1ccc2c(c1)nnn2C1CCCCC1` gave WNV protease inh 0.49, MT1-MMP reporter inactive and Hsc70 -2.2%.
O=C(CCC1CCCC1)N1CCN(C(=O)c2ccco2)CC1 was read as WNV protease inh 0.69, MT1-MMP reporter inactive and Hsc70 -8.1%.
`CCN(CC(=O)Nc1ccc2c(c1)OCCO2)CC(=O)Nc1cc(C)on1` gave WNV protease inh 0.34, MT1-MMP reporter inactive and Hsc70 -2.4%.
For Cc1c(C)n(C(=O)CSc2nncn2C)c2ccccc12 the results were WNV protease inh -0.56, MT1-MMP reporter inactive and Hsc70 1.0%.
Screening O=C(NCCOc1ccccc1)c1ccc2c(c1)OCO2 returned WNV protease inh 0.27, MT1-MMP reporter active and Hsc70 -0.7%.
For COc1ccc(-c2nnco2)cc1OC the results were WNV protease inh -0.22, MT1-MMP reporter inactive and Hsc70 5.3%.
CC(=O)N=c1sc2c3ccccc3ccc2n1C was read as WNV protease inh 0.08, MT1-MMP reporter inactive and Hsc70 4.8%.
For Cc1cccc(OCC(=O)Nc2nonc2NC(=O)COc2cccc(C)c2)c1 the results were MT1-MMP reporter inactive and Hsc70 2.6%.
For CN1CCN(CC(=O)N2CCn3c4c(c5cc(C6CCCCC6)ccc53)CCCC42)CC1 (centres undefined) the results were WNV protease inh 0.64, MT1-MMP reporter 12µM* and Hsc70 0.5%.
CCCC(=O)n1nc(-c2ccccc2)nc1N was read as MT1-MMP reporter inactive and Hsc70 0.7%.
`COc1ccc(-n2c(COc3ccc4ccccc4c3)nnc2SCC(=O)NCc2ccco2)cc1` gave MT1-MMP reporter inactive and Hsc70 -4.4%.
For CCOc1ccccc1NC(=O)C1CCN(c2ccc(S(=O)(=O)N3CCCC3)cc2)CC1 the results were WNV protease inh -1.5, MT1-MMP reporter inactive and Hsc70 2.0%.
Screening O=C(O)c1ccc2oc(SCC(=O)N3CCCCC3)nc2c1 returned WNV protease inh -0.08, MT1-MMP reporter inactive and Hsc70 1.2%.
Screening CN(C(=O)c1ccncc1)C1CCS(=O)(=O)C1 (centres undefined) returned WNV protease inh -0.32, MT1-MMP reporter inactive and Hsc70 3.5%.
For Cc1ccc(N(CC(O)Cn2c3ccccc3c3ccccc32)S(C)(=O)=O)cc1 (centres undefined) the results were MT1-MMP reporter inactive and Hsc70 1.3%.

The last two records of the part above open the next one.
Screening CN(C(=O)c1ccncc1)C1CCS(=O)(=O)C1 (centres undefined) returned WNV protease inh -0.32, MT1-MMP reporter inactive and Hsc70 3.5%.
For Cc1ccc(N(CC(O)Cn2c3ccccc3c3ccccc32)S(C)(=O)=O)cc1 (centres undefined) the results were MT1-MMP reporter inactive and Hsc70 1.3%.
`CN(C)S(=O)(=O)c1ccc(-c2csnn2)s1` gave MT1-MMP reporter inactive and Hsc70 -0.3%.
Screening O=C(OCCN1CCOCC1)c1cccnc1 returned WNV protease inh -1.4, MT1-MMP reporter inactive and Hsc70 2.4%&0.6%.
Screening CCN1CCCC1CN(Cc1cc2ccc(C)c(C)c2[nH]c1=O)C(=O)Nc1ccccc1OC (centres undefined) returned WNV protease inh 2.1, MT1-MMP reporter inactive and Hsc70 4.1%.
`O=c1oc(-c2ccccc2)nc2ccsc12` gave MT1-MMP reporter inactive and Hsc70 1.6%.
`Nc1cc(N)nc(SCC(=O)Nc2ccc3c(c2)OCCCO3)n1` gave WNV protease inh -0.75, MT1-MMP reporter inactive and Hsc70 5.7%.
`O=C(O)C1CC(=O)N(Cc2ccccc2)C1` (centres undefined) gave WNV protease inh -0.88, MT1-MMP reporter inactive and Hsc70 0.0%.
`O=C(Nc1nncs1)C1COc2ccccc2O1` (centres undefined) gave WNV protease inh -1, MT1-MMP reporter inactive and Hsc70 3.6%.
Screening Nc1nnc(CC(=O)NCc2ccccc2)s1 returned WNV protease inh -0.14, MT1-MMP reporter inactive and Hsc70 5.5%.
O=C1c2oc3ccccc3c(=O)c2C(c2cccc(Br)c2)N1Cc1ccco1 (centres undefined) was read as WNV protease inh -1.2, MT1-MMP reporter inactive and Hsc70 -6.7%.
COCCn1c(SCC(=O)NCCc2ccccc2)nnc1-c1ccco1 was read as WNV protease inh 0.45, MT1-MMP reporter inactive and Hsc70 -0.7%.
Screening N=c1c2c(-c3ccccc3)c(-c3ccccc3)n(Cc3ccco3)c2ncn1Cc1ccco1 returned WNV protease inh -1, MT1-MMP reporter inactive and Hsc70 -1.6%.
Screening Cc1ccc(C(O)CN2C3=NCCN3c3ccccc32)cc1 (centres undefined) returned WNV protease inh -0.77, MT1-MMP reporter inactive and Hsc70 -3.9%.
For CCOC(=O)C1=C(C)NC2=C(C(=O)CCC2)C1c1coc2ccccc2c1=O (centres undefined) the results were MT1-MMP reporter inactive and Hsc70 -0.6%.
For CC(=O)N(c1ccccc1)C1SC(=O)N(c2ccccc2)C1=O (centres undefined) the results were WNV protease inh 0.54, MT1-MMP reporter inactive and Hsc70 7.4%.
`CC1N=C2c3ccccc3N=C(SCc3cc(=O)n4ccccc4n3)N2C1=O` (centres undefined) gave WNV protease inh -0.21, MT1-MMP reporter inactive and Hsc70 3.6%.
For FC(F)(F)c1nc2ncc(Cl)cc2[nH]1 the results were WNV protease inh 1.1, MT1-MMP reporter inactive and Hsc70 1.7%.
CCCNC(=O)NC(C)C12CC3CC(CC(C3)C1)C2 (centres undefined) was read as MT1-MMP reporter inactive and Hsc70 -3.2%.
Cn1c(C(=O)OC(C(=O)NC2CCCCC2)c2ccncc2)cc2sccc21 (centres undefined) was read as WNV protease inh 0.49, MT1-MMP reporter inactive and Hsc70 0.2%.
Screening O=C(CCCSc1nc2ccccc2[nH]1)N1CCN(c2ccccc2)CC1 returned WNV protease inh -0.22, MT1-MMP reporter inactive and Hsc70 2.7%.
Screening CC(C)Cn1c(CN(Cc2ccccc2)Cc2ccccc2)nc2c1c(=O)n(C)c(=O)n2C returned WNV protease inh 0.14, MT1-MMP reporter inactive and Hsc70 5.2%.
For Cn1c(NCc2ccccc2)nc2c1c(=O)n(Cc1ccc(Br)cc1)c(=O)n2C the results were WNV protease inh -0.42, MT1-MMP reporter inactive and Hsc70 15%.
Screening Cc1ccc(-n2c(SCC(=O)OC(C)C)nnc2-c2cnccn2)cc1 returned WNV protease inh -0.46, MT1-MMP reporter inactive and Hsc70 -3.3%.
For C=CCn1c(C)cc(C(=O)CN2C(=O)c3ccccc3C2=O)c1C the results were WNV protease inh 0.54, MT1-MMP reporter inactive and Hsc70 -0.2%.
For CN1C(=O)NC(c2cccc(O)c2)C(C(=O)c2cccs2)C1(O)C(F)(F)F (centres undefined) the results were WNV protease inh -0.68, MT1-MMP reporter inactive and Hsc70 -1.8%.
Screening c1ccc(CSc2nnc(Cc3ccccn3)o2)cc1 returned WNV protease inh 1.6, MT1-MMP reporter inactive and Hsc70 1.2%.
CCC(=O)Nc1ccc(S(=O)(=O)c2ccc(NC(=O)CC)cc2)cc1 was read as WNV protease inh -0.14, MT1-MMP reporter inactive and Hsc70 0.1%.
Screening Cn1cccc1-c1nc2ccc(NC(=O)c3ccc([N+](=O)[O-])cc3)cc2[nH]1 returned MT1-MMP reporter inactive and Hsc70 7.9%.
`Cc1cc(OCC(=O)NC(C)C)cc(C)c1Cl` gave MT1-MMP reporter inactive and Hsc70 0.5%.
Screening CS(=O)(=O)N(CC(=O)Nc1cccnc1)c1ccc2c(c1)OCCO2 returned WNV protease inh 0.26, MT1-MMP reporter inactive and Hsc70 5.6%.

In the list so far, twelve contain an aryl thioether with sulfur outside any ring:
For COc1ccc(NC(=O)CSc2nc(C)cc(C(F)(F)F)n2)cc1 the results were WNV protease inh -0.12, MT1-MMP reporter inactive and Hsc70 4.0%.
`Cc1c(NC(=O)C(C)Sc2nnc(-c3ccccc3)o2)c(=O)n(-c2ccccc2)n1C` (centres undefined) gave WNV protease inh -1.4, MT1-MMP reporter inactive and Hsc70 0.2%.
Cc1cc(SCC(=O)OCC(=O)N2CCN(C(=O)c3ccco3)CC2)c(C)cc1Br was read as MT1-MMP reporter inactive and Hsc70 3.6%.
Screening CCCCc1c(O)nc(SCC(=O)NC(C)(C)C)n(-c2ccccc2C)c1=O returned MT1-MMP reporter inactive and Hsc70 -2.2%.
For Cc1c(C)n(C(=O)CSc2nncn2C)c2ccccc12 the results were WNV protease inh -0.56, MT1-MMP reporter inactive and Hsc70 1.0%.
`COc1ccc(-n2c(COc3ccc4ccccc4c3)nnc2SCC(=O)NCc2ccco2)cc1` gave MT1-MMP reporter inactive and Hsc70 -4.4%.
Screening O=C(O)c1ccc2oc(SCC(=O)N3CCCCC3)nc2c1 returned WNV protease inh -0.08, MT1-MMP reporter inactive and Hsc70 1.2%.
`Nc1cc(N)nc(SCC(=O)Nc2ccc3c(c2)OCCCO3)n1` gave WNV protease inh -0.75, MT1-MMP reporter inactive and Hsc70 5.7%.
COCCn1c(SCC(=O)NCCc2ccccc2)nnc1-c1ccco1 was read as WNV protease inh 0.45, MT1-MMP reporter inactive and Hsc70 -0.7%.
Screening O=C(CCCSc1nc2ccccc2[nH]1)N1CCN(c2ccccc2)CC1 returned WNV protease inh -0.22, MT1-MMP reporter inactive and Hsc70 2.7%.
Screening Cc1ccc(-n2c(SCC(=O)OC(C)C)nnc2-c2cnccn2)cc1 returned WNV protease inh -0.46, MT1-MMP reporter inactive and Hsc70 -3.3%.
Screening c1ccc(CSc2nnc(Cc3ccccn3)o2)cc1 returned WNV protease inh 1.6, MT1-MMP reporter inactive and Hsc70 1.2%.

Screens deposited in PubChem BioAssay by several laboratories.
